StopGo reporter: lowers the luciferase signal of an FMDV 2A StopGo reporter. human cells with a luciferase reporter of 2A StopGo recoding; control for the full effect not named in the record. Potency, µM (top dose mostly 57.9 µM), for the others: at the highest dose signal change, negative = less light. 410,000 tested, 1.2% active; active = well fitted falling curve with a large enough effect; inconclusive = small, poorly fitted or top-dose-only effect; inactive = no such curve, though single readings can be large or run the other way; tested in HEK293T cells; also: % is scaled to controls: 0 for no effect and ±100 for the full control effect; nearly all actives have a fitted effect of over 45% in size; luciferase light after 4 h
Marburg entry inh: Marburg virus entry inhibition; Marburg virus pseudotyped entry inhibition, cell reporter; control for the full effect not named in the record; about a third of the inactives were read at about 46 µM; Potency, µM (titrated, usually from 37.8 µM), inactives show at the highest dose activity change, negative = inhibition, usual class: inhibitors; 300,000 tested, 1.8% active; AID 540276; active = well fitted inhibition curve with a large enough effect; inconclusive = small, poorly fitted or top-dose-only effect, or effect the other way; inactive = flat fitted curve, though single readings scatter; tested in HEK293 cells; about a fifth of its hits are not listed in these tables; also: % is scaled to controls: 0 for no effect and ±100 for the full control effect; luciferase read-out
LASV entry inh: blocks Lassa virus binding to or entry into cells; Lassa virus pseudotype entry inhibition, cell reporter; control for the full effect not named in the record; 300,000 tested, 1.2% active; Potency, µM (titrated, usually from 37.9 µM), inactives show at the top dose activity change, negative = inhibition, usual class: inhibitors; AID 540256; active means well fitted inhibition curve with a large enough effect; inconclusive means small, poorly fitted or top-dose-only effect, or effect the other way; inactive means flat fitted curve, though single readings scatter; tested in HEK293 cells; also: % is scaled to controls: 0 for no effect and ±100 for the full control effect; nearly all actives have a fitted effect of over 50% in size; luciferase read-out
Cruzain Triton: inhibitors of Trypanosoma cruzi cruzain with detergent; 200,000 tested, 0.43% active; purified cruzain, Z-FR-AMC fluorescence, 0.01% Triton; Potency, µM, for inactives: max response, negative = inhibition, usual class: inhibitors; AID 1478;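 also: plate controls were neutral wells for no effect and buffer without enzyme for full effect; nearly all actives have a fitted effect of over 40% in size; top concentration of the series not given in the record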
Target sequence (P25779 123-467 limits assumed): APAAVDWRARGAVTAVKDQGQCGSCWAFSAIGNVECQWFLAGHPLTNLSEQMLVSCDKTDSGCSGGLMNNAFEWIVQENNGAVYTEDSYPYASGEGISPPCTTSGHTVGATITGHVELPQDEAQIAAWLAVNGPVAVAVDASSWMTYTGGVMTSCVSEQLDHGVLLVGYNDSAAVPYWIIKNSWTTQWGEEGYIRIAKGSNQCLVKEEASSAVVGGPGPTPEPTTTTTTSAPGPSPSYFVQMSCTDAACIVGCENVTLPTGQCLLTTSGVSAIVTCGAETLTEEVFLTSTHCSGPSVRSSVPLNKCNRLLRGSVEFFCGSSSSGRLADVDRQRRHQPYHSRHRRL
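Detergent-containing arm of a paired screen for aggregation-based inhibition: 0.01% Triton X-100 present. Cruzain at 1.5 nM cleaved 2 uM Z-FR-AMC at pH 5.5 with 5 mM DTT; AMC fluorescence gain over 60 s measured activity.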
SARS PLpro yeast: SARS-CoV PLP inhibition in yeast; 330,000 tested, 0.19% active; Potency, µM (series often up to 32.9 µM), inactives show top-dose activity, positive = growth rescue; S. cerevisiae expressing SARS-CoV PLpro, growth rescue; control for the full effect not named in the record; active means well fitted rising curve with a large enough effect; inconclusive means small, poorly fitted or top-dose-only effect; inactive means no such curve, though single readings can be large or run the other way; also: 0% is about no effect; nearly all actives have a fitted effect of over 55% in size; growth read by luminescence after 48 h
Cruzain inh noDet: cruzain (T. cruzi) inhibition without detergent; P25779; purified cruzain, Z-FR-AMC fluorescence, no detergent; Potency, µM, inactives show max response, negative = inhibition, actives largely listed as inhibitors; 200,000 tested, 2.3% active; AID 1476;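 also: plate controls were enzyme without inhibitor for no effect and buffer without enzyme for full effect; nearly all actives have a fitted effect of over 40% in size; top concentration of the series not given in the record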
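Detergent-free condition (0.00005% Triton X-100) in acetate buffer pH 5.5 with DTT. 1.5 nM enzyme and compound were pre-mixed 15 min, then 2 uM Z-FR-AMC substrate added; reaction progress from fluorescence change between first and third reads (60 s).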
RE007 growth inh: less growth of the S. pombe RE007 Vpr strain. 360,000 tested, 0.21% active. Potency, µM (highest dose often 92.2 µM), inactives show at the top dose activity change, negative = less growth. S. pombe RE007 Vpr strain, BacTiter-Glo ATP luminescence, 24 h; control for the full effect not named in the record; active = well fitted falling curve with a large enough effect; inconclusive = small, poorly fitted or top-dose-only effect; inactive = no such curve, though single readings can be large or run the other way;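 also: % is scaled to controls: 0 for no effect and ±100 for the full control effect; nearly all actives have a fitted effect of over 50% in size; the assay follows cell death caused by Vpr and the record does not say whether a fall means rescue or toxicity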
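Fission yeast RE007 carrying one integrated HIV-1 vpr copy, seeded at OD 0.01 in PMG+AL medium with 23 nL pinned compound. Grown 24 h at 30 degrees; viability read by BacTiter-Glo luminescence after 5 min.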
NS1 inh: influenza NS1 inhibition | S. cerevisiae slowed by influenza A NS1, growth recovery by OD600 | Potency, µM (doses to about 46.1 µM), inactives show at the top dose activity, positive = more growth | 270,000 tested, 0.4% active; active means well fitted rising curve with a large enough effect; inconclusive means small, poorly fitted or top-dose-only effect; inactive means no such curve, though single readings can be large or run the other way; also: nearly all actives have a fitted effect of over 50% in size
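Growth recovery, yeast-based: influenza A NS1 expressed in S. cerevisiae causes slow growth, and suppressors are detected by OD600. The parent strain without NS1 is used as positive control.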
The depositor's hits bear a star; u = inconclusive; x = no result given; & = joins results of further samples; [ ] = remark or other dose. Unless noted, calls follow the shape of the dose curve; as a rule, active = well fitted curve in the direction sought with a large enough effect; inconclusive = small, poorly fitted or top-dose-only effect, or another doubt; inactive = no such curve, though single readings can be large; an effect the other way counts as inactive or inconclusive. Potency is read from the fitted curve at half-maximal effect.

SMILES	StopGo reporter	Marburg entry inh	LASV entry inh	Cruzain Triton	SARS PLpro yeast	Cruzain inh noDet	RE007 growth inh	NS1 inh
Cc1cccc(-c2nc3c4ccccc4n(CC(=O)Nc4cc(F)ccc4F)c(=O)n3n2)c1	-11%	x	24%[46.1 µM]	0.1%	x	9%	x	x
c1ccc(Nc2cccc(Nc3ccccc3)c2)cc1	20%	u	u	-6.0%	-52%	-13%	u	-2%
Cc1ccc(CN2CCc3nc(N4CCN(c5ccccc5F)CC4)ncc3C2)cc1C	0%	x	17%[46.1 µM]	1.3%	x	-4%	x	x
Cc1ccc(NC(=O)CCn2c(=O)c3cccn3c3ccccc32)cc1C	-14%&-13%	x	u	-4.8%	-4%	22%	-1%	2%
CCCCOc1ccccc1Cn1c(=O)sc2ccccc21	-14%	u	u	-5.3%	x	-4%	x	x
C=CCn1cccc(C(=O)Nc2cc(OC)ccc2OC)c1=O	11%	-11%[46.1 µM]	-3%	x	-4%	x	-6%	x
COc1cccc(C2CC(c3ccc(F)cc3)Nc3nc(N)nn32)c1 (stereo not given)	-20%	x	x	0.5%	1%	-3%	5%	7%
Cc1ccc(C(=O)C2=C(O)C(=O)N(c3ncccn3)C2c2ccc(Br)cc2)o1 (stereo not given)	0%	3%[46.1 µM]	15%[46.1 µM]	x	4%	x	-7%	11%
Cc1ccc(-n2c(Cc3cccn3C)nnc2SCC(=O)NCc2ccc3c(c2)OCO3)cc1	13%	-1%&1%	-19%	-4.6%	12%	26%	2%	-9%
CCc1nnc(SCc2cccc(F)c2)c2cc3sc(C)cc3n12	-4%	x	-22%[46.1 µM]	-6.5%	x	2%	x	x
CC1=NN(C)C(=O)C1Cc1c(F)cccc1Cl (stereo not given)	-11%	0%[46.1 µM]	-12%	x	x	x	1%	x
Cc1c(N=Cc2c(O)n(CCc3ccc(F)cc3)c(=O)[nH]c2=O)c(=O)n(-c2ccccc2)n1C	x	u	u	-3.5%	-6%	-4%	-1%	3%
CC(=O)Oc1ccc2occ(-c3ccccc3)c2c1	41%[activator]	x	x	x	-23%	x	-29%	-133%
COc1ccc(NS(=O)(=O)c2ccc(Oc3cccc(C(=O)O)c3)cc2)cc1	8%	9%[46.1 µM]	-4%	x	0%	x	8%	3%
COc1ccccc1N1CCN(S(=O)(=O)CCNC(=O)c2ccc(OC(C)C)cc2)CC1	u	x	x	x	10%	x	6%	-19%
Cc1cccc(C(=O)NCc2cn3cccc(C)c3n2)c1	-11%	u	-22%[46.1 µM]	1.1%	x	4%	x	x
COCCCN1C(=O)c2ccc(C(=O)OCC(=O)NCCc3ccccc3)cc2C1=O	-12%	-2%[46.1 µM]	20%	x	2%	x	-13%	2%
Cc1cccc(NC(=O)c2ccc([N+](=O)[O-])cc2Cl)n1	-17%	10%	15%	-3.1%	-10%	-6%	-17%	-5%
COC(=O)C(CCSC)NC(=O)CNC(=O)C1CCCCC1 (stereo not given)	19%	1%	-1%	0.5%	x	-3%	41%	-2%
COc1ccc(-n2ncc3c(NCCCOC(C)C)ncnc32)cc1	-6%	x	23%[46.1 µM]	-0.2%	x	-2%	x	x
C/C(N)=C(/C#N)C(=O)CSc1nnc(SCc2ccc(Cl)cc2)s1	u	u	u	-6.5%	-5%	12%	9%&4%	-24%
COCCNCCOCCOc1ccc(Cl)c(C)c1	-24%	-17%	-9%	3.1%	-1%	5%	-18%	-4%
O=C(NCc1ccccn1)[C@H]1C[C@@H]1[C@H](NP(=O)(c1ccccc1)c1ccccc1)c1ccccc1	3%	-4%	-29%	-0.2%&-2.9%	-5%	1%&3%	-9%	-22%
COc1cc(/C=C/C(=O)N2C(=O)c3cccc(N)c3C2=O)cc(OC)c1OC	-27%	x	x	-5.7%	-19%	12%	7%	-3%
COc1ccc(C(=O)NC(CCSC)C(=O)N2CCCCCC2)cc1 (stereo not given)	13%	1%[46.1 µM]	7%[46.1 µM]	x	0%	x	-15%	-6%
CCOc1ccc2oc(C(=O)O)c(C)c2c1	15%	0%[46.1 µM]	18%	x	2%	x	-29%	2%
Cc1c(Cl)cnc(NC(=O)COC(=O)c2ccc3c(c2)OCO3)c1Cl	21%	u	3%	-7.9%	7%	-25%	18%	13%
Cc1ccc2c(c1)cc1c(=O)n(CC(=O)NCc3ccco3)nc(C)n12	2%	u	x	-0.8%	x	-9%	x	x
COc1ccc(-c2csc(Nc3ccc(C)cn3)n2)cc1OC	-10%	x	x	x	1%	x	-3%	12%
CCN(CC)S(=O)(=O)c1ccc(N2CCOCC2)c(NC(=O)C2CCCO2)c1 (stereo not given)	4%	x	x	x	1%	x	-4%	-2%
CCCn1c(=O)c(C(=O)NNC(=O)Cc2ccccc2)c(O)c2ccccc21	-17%	-13%[46.1 µM]	-3%	x	-4%	x	-9%	2%
CCn1nc(C)c(/C=N/NC(=O)Cn2nc(C)cc2C)c1C	7%	-5%	0%	-2.4%	2%	5%	0%	5%
C/C(CC(=O)Nc1cc(Cl)ccc1Cl)=N\NC(=O)c1ccco1	-7%	-23%	-4%	1.4%	-12%	5%	-13%	10%
O=C1NC(c2ccccc2)C(c2ccccc2)N1 (stereo not given)	-20%	u	0%[46.1 µM]	x	x	x	-12%	x
c1ccc(-c2nc(NC3CCCC3)c3ccccc3n2)cc1	u	u	-25%	x	-6%	x	4%	-43%
O=C(Nc1cc2c(cc1C(=O)c1ccccc1Cl)OCCO2)c1ccccc1	-21%	x	16%[46.1 µM]	0.1%	x	-6%	x	x
Cc1cc(C(=O)C(=O)Nc2nnc(C(C)C)s2)c(C)n1-c1ccccc1	u	-13%[46.1 µM]	-8%[46.1 µM]	-6.1%	x	-3%	x	x
COC(=O)c1ccccc1NC(=S)N(C)C	-4%	3%[46.1 µM]	8%	x	1%	x	2%	3%
Cc1[nH]nc2c1C1(C(=O)N(Cc3ccc(Cl)cc3)c3ccccc31)C(C#N)=C(N)O2 (stereo not given)	x	-24%	-15%	-8.2%	-2%	5%	-2%	-54%
O=C(NC1CCCCC1)N1CCCC(c2nc(-c3cccs3)no2)C1 (stereo not given)	-28%	u	u	-1.9%	-7%	-7%	1%	-2%
COc1cccc(-n2nc3c(-n4ncc(C#N)c4N)nnc(C)c3c2C)c1	-3%	3%	-2%	-0.4%	17%	12%	-1%	8%
Cc1cccc(C)c1NC(=O)COC(=O)CCc1ccc(S(=O)(=O)N2CCCCC2)cc1	5%	10%	-8%	-0.6%	22%	9%	-2%	1%
COC(=O)COc1ccc(S(=O)(=O)NCc2cccnc2)cc1C	-9%	7%	-15%	5.1%	-11%	3%	-10%	-3%
CCOc1ccc(CCNc2ncnc3onc(-c4ccc(Cl)cc4)c23)cc1OCC	u	7.9µM*	x	-4.4%	x	u	x	x
COC(=O)c1cc([N+](=O)[O-])c(-n2cncn2)c([N+](=O)[O-])c1	u	x	x	x	-1%	x	12%	6%

10 structures out of the list, sorted by formula weight, smallest number first.
SMILES	StopGo reporter	Marburg entry inh	LASV entry inh	Cruzain Triton	SARS PLpro yeast	Cruzain inh noDet	RE007 growth inh	NS1 inh
O=C1NC(c2ccccc2)C(c2ccccc2)N1 (stereo not given)	-20%	u	0%[46.1 µM]	x	x	x	-12%	x
c1ccc(-c2nc(NC3CCCC3)c3ccccc3n2)cc1	u	u	-25%	x	-6%	x	4%	-43%
C/C(CC(=O)Nc1cc(Cl)ccc1Cl)=N\NC(=O)c1ccco1	-7%	-23%	-4%	1.4%	-12%	5%	-13%	10%
COc1cccc(-n2nc3c(-n4ncc(C#N)c4N)nnc(C)c3c2C)c1	-3%	3%	-2%	-0.4%	17%	12%	-1%	8%
Cc1cc(C(=O)C(=O)Nc2nnc(C(C)C)s2)c(C)n1-c1ccccc1	u	-13%[46.1 µM]	-8%[46.1 µM]	-6.1%	x	-3%	x	x
CCCn1c(=O)c(C(=O)NNC(=O)Cc2ccccc2)c(O)c2ccccc21	-17%	-13%[46.1 µM]	-3%	x	-4%	x	-9%	2%
O=C(Nc1cc2c(cc1C(=O)c1ccccc1Cl)OCCO2)c1ccccc1	-21%	x	16%[46.1 µM]	0.1%	x	-6%	x	x
Cc1[nH]nc2c1C1(C(=O)N(Cc3ccc(Cl)cc3)c3ccccc31)C(C#N)=C(N)O2 (stereo not given)	x	-24%	-15%	-8.2%	-2%	5%	-2%	-54%
CCOc1ccc(CCNc2ncnc3onc(-c4ccc(Cl)cc4)c23)cc1OCC	u	7.9µM*	x	-4.4%	x	u	x	x
Cc1cccc(C)c1NC(=O)COC(=O)CCc1ccc(S(=O)(=O)N2CCCCC2)cc1	5%	10%	-8%	-0.6%	22%	9%	-2%	1%

Other compounds
SMILES	StopGo reporter	Marburg entry inh	LASV entry inh	Cruzain Triton	SARS PLpro yeast	Cruzain inh noDet	RE007 growth inh	NS1 inh
O=C(Nc1ccc(Br)cn1)c1ccc([N+](=O)[O-])cc1Cl	5%	u	0%[46.1 µM]	x	-4%	x	-20%	x
S=c1[nH]ncn1NCc1ccc(Cl)cc1Cl	9%	x	x	x	-2%	x	-15%	1%
S=c1[nH]ccn1-c1c(Cl)cccc1Cl	10%	0%[46.1 µM]	u	x	1%	x	19%	-4%
Cc1c(C(=O)N2CCN(c3cccc(Cl)c3)CC2)cccc1[N+](=O)[O-]	u	u	-12%	x	-1%	x	-4%	-9%
COCC(=O)N/N=C/c1c(C)[nH]n(-c2ccccc2)c1=O	-6%	7%[46.1 µM]	-16%[46.1 µM]	x	5%	x	-14%	x
Cc1ccc(S(=O)(=O)CCC(=O)Nc2ccccc2Br)cc1	0%	x	x	x	-3%	x	-18%	-2%
COc1ccc2cc(C(=O)N3CCCCCC3)sc(=O)c2c1OC	-17%	-8%	-23%	0.3%	-1%	2%	-17%	-54%
C#CCOC(=O)C(NC(=O)c1ccccc1)=C(C)C	-8%	4%	4%	-0.5%	0%	0%	3%	-7%
COc1ccc(-n2sc3c(c2=S)-c2cc(OC)ccc2NC3(C)C)cc1	-10%	u	-19%	-0.5%	-1%	u	-6%	u
Cc1ccc(S(=O)(=O)Nc2ccc3c(c2)CCC3)cc1	11%	-24%	-7%	-13%	-69%	-6%	6%	-36%
